# gsp ag – agonists of gsp mutant (McCune-Albright syndrome); gsp mutant cells, cAMP HTRF, 30 min; control for the full effect not named in the record; Potency, µM (highest dose often 76.9 µM), inactives show top-dose activation (cAMP increase), actives largely listed as activators; hit rate 0.13% among 340,000; AID 624287; active = well fitted activation curve with a large enough effect; inconclusive = small, poorly fitted or top-dose-only effect, or another doubt; inactive = no such curve, though single readings can be large or run the other way; cell line not stated here;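 also: phosphodiesterase inhibitor Ro 20-1724 added with compounds to block cAMP breakdown; potency is read from the fitted curve at half-maximal effect; nearly all actives have a fitted effect of over 60% in size; about a fifth of the inactives were tested at one dose only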
#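 Cells in DMEM/10% FBS with G418 were pretreated with compounds in DMSO plus […] (300 uM stock) for 30 min at 37C. cAMP was measured by HTRF (cAMP-d2 plus anti-cAMP antibody-K) after 30 min at room temperature.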
# TRPV1 PAM – enhances activation of the human vanilloid receptor TRPV1 | Q8NER1 | TRPV1-expressing cells, Fluo-8 calcium influx, capsaicin EC20 potentiation; host cell line not named in the record; control for the full effect not named in the record | potentiation, % at 8.33 µM | hit rate 0.02% among 320,000 | AID 540277; active means potentiation above 80%; inconclusive means 30% to 80%; inactive means below 30%; also: 0% is about no effect
#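 TRPV1-expressing cells were cultured overnight at 35.5C and loaded with Fluo-8 calcium dye for 40 to 90 min at room temperature. After a 10 s baseline, compound was added and calcium influx was read kinetically for 3 min (ex 480/em 520 nm).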
# TRPML1 blocker – blocks the human TRPML1 channel; Q9GZU1; TRPML1-inducible cells, Ca2+ dye fluorescence, FDSS; hits give low values; inhibition of EC80 agonist-evoked calcium signal; activity change, negative = inhibition, % (no concentration beside the values); hit rate 0.02% among 390,000; in the data active means activity change below about -50%; inconclusive means about -30% to -50%; inactive means above about -30%;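 also: stimulus is agonist 54-4 at its EC80 concentration; % is scaled to controls: 0 for no effect and ±100 for the full control effect; compound concentration not given in the record; the text of the record puts the active cut at -80%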
# Target sequence (Q9GZU1 whole entry, looked up): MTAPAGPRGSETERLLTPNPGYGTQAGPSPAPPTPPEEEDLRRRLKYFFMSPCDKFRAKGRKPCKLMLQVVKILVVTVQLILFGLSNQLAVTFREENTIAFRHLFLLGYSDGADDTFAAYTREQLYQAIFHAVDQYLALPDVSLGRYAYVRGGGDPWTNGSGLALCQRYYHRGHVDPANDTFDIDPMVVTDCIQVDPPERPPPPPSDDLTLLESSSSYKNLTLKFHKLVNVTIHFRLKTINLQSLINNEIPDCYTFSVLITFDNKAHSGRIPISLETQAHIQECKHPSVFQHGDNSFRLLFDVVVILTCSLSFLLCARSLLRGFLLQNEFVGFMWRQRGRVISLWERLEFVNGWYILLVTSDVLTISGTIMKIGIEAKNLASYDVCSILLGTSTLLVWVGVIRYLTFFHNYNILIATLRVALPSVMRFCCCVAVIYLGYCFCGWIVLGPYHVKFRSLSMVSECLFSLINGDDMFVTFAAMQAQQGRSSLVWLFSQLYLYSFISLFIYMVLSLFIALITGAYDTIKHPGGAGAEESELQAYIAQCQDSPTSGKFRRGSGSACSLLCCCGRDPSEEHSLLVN
#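 Calcium fluorescence in TRPML1-DL cells induced overnight with Tet: a 110 s read after compound pin addition, then a 110 s antagonist read after challenge with 54-4 at 4 uM final (EC80).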
# Menin MLL FP FL – inhibitors of human menin-MLL interaction, wild-type MLL peptide; Fluorescence polarization, fluorescein-MLL peptide displacement from menin; FP activity change, % at 61.4 µM; 290,000 tested, under 10 active; inconclusive = falling polarisation curve, or a change in total fluorescence; inactive = total fluorescence flat and polarisation flat or rising; no compound was filed as active; the % refers to the polarisation; negative = inhibition;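 also: % of control where 0% means no effect; inhibitors lower the polarisation; unlabelled MLL peptide was the positive control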
# ClpP mod – qHTS Assay for Activators of ClpP; Potency, µM (top dose mostly 57.5 µM), inactives show top-dose activity change, negative = active; hit rate 1.9% among 340,000; ATP-dependent Clp protease proteolytic subunit (Bacillus subtilis (strain 168)), P80244; purified B. subtilis ClpP, FRET peptide cleavage, 20 min; AID 651965, 2013; active = well fitted falling curve with a large enough effect; inconclusive = small, poorly fitted or top-dose-only effect; inactive = no such curve, though single readings can be large or run the other way; also: potency is read from the fitted curve at half-maximal effect; the source files actives as falling curves though it sought activators and does not explain the sign; nearly all actives have a fitted effect of over 65% in size; many hits overshoot -100%
# Target sequence (P80244 whole entry, looked up): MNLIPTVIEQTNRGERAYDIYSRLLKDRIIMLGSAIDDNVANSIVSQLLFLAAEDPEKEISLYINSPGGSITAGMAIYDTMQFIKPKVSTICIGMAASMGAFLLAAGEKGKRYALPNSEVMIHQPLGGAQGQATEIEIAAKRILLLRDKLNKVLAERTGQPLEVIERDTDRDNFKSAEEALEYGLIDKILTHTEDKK
#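 Purified B. subtilis ClpP, 10 microg/mL final in Tris/HCl pH8 with KCl, BSA, glycerol and Tween-20, cleaved an Abz/nitrotyrosine-quenched decapeptide. Fluorescence (ex 320, em 430) was read at 0 and 20 min at room temperature. Delta was normalized to 5.8 microM ADEP and DMSO/no-enzyme controls.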
# Sfp PPTase inh – Sfp phosphopantetheinyl transferase inhibition; Q9F4F7; Biochemical Sfp PPTase activity, qHTS; Potency, µM, inactives show max response, negative = inhibition, actives largely listed as inhibitors; hit rate 3.5% among 310,000; active = well fitted inhibition curve with a large enough effect; inconclusive = small, poorly fitted or top-dose-only effect, or another doubt; inactive = no such curve, though single readings can be large or run the other way;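 also: the enzyme is Sfp with the accession as filed and its product quenches rhodamine fluorescence; potency is read from the fitted curve at half-maximal effect; 0% = enzyme reaction without inhibitor and -100% = no enzyme wells; top concentration of the series not given in the record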
#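 Buffer: 50 mM Hepes-Na pH 7.6, 10 mM MgCl2, 0.01% Nonidet P-40, 0.01% BSA. Enzyme 15 nM, pre-exposed to compound 15 min; substrates then added and fluorescence change tracked over 30 min.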
# gsp antag – antagonists of gsp mutant (McCune-Albright syndrome); Potency, µM (doses to about 76.9 µM), inactives show top-dose activity change, negative = inhibition, usual class: inhibitors; gsp-mutant cells, cAMP HTRF, 30 min; control for the full effect not named in the record; hit rate 0.4% among 340,000; active = falling curve of any shape with a large fitted effect; inconclusive = falling curve, mostly with a smaller effect; inactive = flat or rising curve; cell line not stated here;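 also: intracellular cAMP measured with PDE inhibitor Ro 20-1724 present during compound exposure; potency is read from the fitted curve at half-maximal effect; % is scaled to controls: 0 for no effect and ±100 for the full control effect; nearly all actives have a fitted effect of over 65% in size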
#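 HTRF cAMP measurement after 30 min RT detection following 30 min, 37C compound treatment alongside […] (added as 300 uM solution) in G418-selected cells seeded at 2000/well and grown 16–24 h.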
# An asterisk follows results filed as active; u = inconclusive; x = not tested or not shown; & = joins results of further samples; [ ] = dose if it differs, or a comment.
SMILES,gsp ag,TRPV1 PAM,TRPML1 blocker,Menin MLL FP FL,ClpP mod,Sfp PPTase inh,gsp antag
COc1ccc(NC(=S)NNC(=O)C(C)n2nc(C)c([N+](=O)[O-])c2C)cc1 (centres undefined),-7.5%,4.4,2.6,6.6,-2.0%,19.7%,-3.7%
CCN1CCCC1CNS(=O)(=O)c1ccc(F)c(Cl)c1 (centres undefined),15.9%,-7.6,-21.0,-1.4,x,-0.5%,10.8%
N/C(=N\OC(=O)CCCOc1ccccc1)c1cccc([N+](=O)[O-])c1,0.9%,10.9,21.6,0.6,x,5.5%,-5.6%
Cc1ccc(-c2nnn(CC(=O)NC(=O)NC3CCCCC3)n2)cc1,4.8%[15.4 µM],-13.6,5.3,x,1.0%,x,-15.6%
O=C(NCC1COc2ccccc2O1)C1CCCN(S(=O)(=O)c2cccc3nsnc23)C1 (centres undefined),25.6%,4.7,-9.6,12.2,0.0%,-0.2%,-24.9%
CC(=O)N1c2ccc(S(=O)(=O)N3CCC(C(=O)N4CCN(c5ccccc5)CC4)CC3)cc2CC1C (centres undefined),4.8%,7.8,11.5,x,1.4%,10.5%,-25.8%
O=C(/C=C/Nc1ccc(F)cc1Br)c1ccccc1,4.7%,7.6,-3.7,3.0,4.6%,27.3%,4.9%
Cc1ccc(Oc2ncccc2/C=N/O)cc1,-3.4%,15.4,-2.4,1.4,-3.1%,16.3%,-2.1%
N#CC1=C(S)N=C(N)C(c2nc(-c3ccccc3)cs2)C12CCCC2 (centres undefined),-2.2%,-13.8,0.4,2.6,u,u,3.8%
CCN(C(=O)COC(=O)Cc1coc2cc(C)ccc12)c1c(N)n(Cc2ccccc2)c(=O)[nH]c1=O,-1.6%,-3.4,-7.8,x,-0.9%,x,3.1%
COc1ccc([N+](=O)[O-])cc1N(CC(O)CN1CCOCC1)S(=O)(=O)c1ccccc1 (centres undefined),-3.2%[15.4 µM],-8.9,0.7,-0.2,1.4%,7.8%,2.8%
CCCCNC(=O)[C@H]1N2C(=O)c3c(ccc(OC)c3OC)C2SC1(C)C (some centres undefined),-30.9%[inhibitor],-4.5,8.6,-6.1,u,-2.7%,-18.3%
O=C(Cn1cnc2c(nnn2-c2ccccc2)c1=O)NCC1CCCO1 (centres undefined),u,3.0,-1.4,-0.2,-6.1%,24.6%,4.5%
CCN(CC)S(=O)(=O)c1ccc(C(=O)NC2=C(C(=O)OC)SCC2)cc1,u,-12.5,4.4,4.5,2.8%,-3.2%,-14.5%
Cc1ccc(NC(=O)CCN2C(=O)c3ccccc3Sc3ncccc32)cc1,u,-26.6,1.1&28.0,x,-4.1%&-0.4%,-7.1%,10.0%
CCOc1ccc(S(=O)(=O)c2c[nH]c3ccccc3c2=O)cc1,15.7%,1.5,15.9&-5.2,-3.5,-4.4%,20.2%,-8.5%
S=c1[nH]nc(-c2cc(-c3ccccc3)n[nH]2)n1/N=C/c1ccc(Cl)cc1,-35.8%[inhibitor],x,2.1,-1.3,x,-4.7%,-36.8%
COc1ccc(C2CC(c3ccccc3)Nc3nc(NC(=O)c4cccs4)nn32)cc1 (centres undefined),28.6%,6.1,2.3,7.9,-0.4%,-0.4%,5.5%
COc1cccc(/C=C/c2n[nH]c(=O)c(C#N)c2C)c1,6.0%,-4.4,4.9,3.8,x,-4.2%,0.6%
O=C1NC(Cc2ccccc2)c2nc3ccc(Cl)cc3c(=O)n2-c2ncccc21 (centres undefined),4.5%,x,19.6,x,-4.9%,x,x
CC(C)(C)c1cc(C(=O)O)n(Cc2ccc(Cl)cc2Cl)n1,0.7%[15.4 µM],-6.5,-5.9,5.3,-7.6%,12.5%,-2.4%
CCCCOc1ccc(C(=O)OCC(=O)N2CCCCCC2)cc1,-14.7%[15.4 µM],x,0.8,x,-6.0%,x,u
CC1(C)CC(NS(=O)(=O)c2ccc(S(N)(=O)=O)cc2)CC(C)(C)N1,x,16.0,x,u,x,10.6%,x
CNc1nc(Sc2ccc(C)cc2)cc(C(F)(F)F)n1,-27.3%,12.8,-7.9,0.0,76.5%,11.1%,4.4%
Cc1cc(C)cc(NC(=O)COC(=O)CCc2ccc(S(=O)(=O)N3CCOCC3)cc2)c1,9.3%[15.4 µM],-0.1,-24.6,-0.3,x,23.0%,x

# Next part.
SMILES,gsp ag,TRPV1 PAM,TRPML1 blocker,Menin MLL FP FL,ClpP mod,Sfp PPTase inh,gsp antag
Nc1ccc2c(c1)[nH]c(=O)c1cc(N)ccc12,u,x,17.3,x,u,x,x
COC(=O)c1cc(C(=O)NCc2ccc3c(c2)OCO3)cc([N+](=O)[O-])c1,-1.2%,-6.0,-2.6,0.3,x,4.4%,-20.7%
CC(NS(=O)(=O)c1ccc2c(c1)OCCO2)c1ccccc1 (centres undefined),-0.2%,2.9,6.5,-0.4,x,10.6%,9.5%
O=C(Nc1cccc(F)c1)Nc1cccc(Cl)c1,-19.1%,-3.4,19.5,-4.1,x,0.9%,-18.4%
Cc1ccc(/C=N/NC(=O)CSc2nc3ccccc3s2)o1,-3.3%[15.4 µM],-2.1,0.1,1.9,-24.7%,-5.5%,7.6%
CCOc1ccccc1NC(=O)Cn1c(=O)oc2cc(Cl)ccc21,-1.1%[15.4 µM],-2.2,-1.4,8.5,-0.4%,4.5%,-0.6%
COCCCN(C(=O)c1ccco1)c1nc(-c2ccc(OC)cc2)cs1,5.1%[15.4 µM],0.3,7.7,-4.4,-8.6%,-29.4%,u
COC(=O)c1ccc(NC(=O)c2ccc3nsnc3c2)cc1,-2.0%[15.4 µM],-11.3,1.5,0.6,x,17.5%,2.5%
O=C(Nc1ccccc1N1CCN(C(=O)c2ccc(Cl)cc2)CC1)c1cccc(F)c1,19.7%,-9.8,57.0,x,-5.8%,5.2%,u
COc1ccc(C2CC(=O)c3c([nH]c(C(=O)OC(C)C)c3C)C2)cc1OC (centres undefined),-69.9%[inhibitor],-12.0,-16.8,1.5,0.8%,-5.1%,-15.8%
COc1ccc(-c2noc(-c3ccccc3C(=O)Nc3cccc(OC)c3)n2)cc1,-31.0%,13.3,-1.4,1.2,10.2%,16.5%,-24.6%
CCOC(=O)c1sc(=S)n(-c2ccccc2)c1NC(C)=O,-7.4%[15.4 µM],0.3,4.2,4.6,x,23.6%,-3.6%
COC(=O)C1CCN(C(=O)Nc2ccccc2)CC1,-18.0%[15.4 µM],-6.4,-9.3,-0.1,x,16.2%,-7.1%
COc1ccc(NC(=O)CCNC(=O)C2CCN(S(=O)(=O)c3ccc(OC)cc3)CC2)cc1,0.4%,-1.0,0.3,x,x,11.9%,0.0%
CC(C)C(=O)N1CCC(Cc2ccccc2)CC1,-3.4%,-34.8,19.4,-2.1,0.3%,1.7%,-10.7%
Cc1[nH]c(=O)[nH]c(=O)c1N1CCOCC1,u,u,x,4.2,-1.0%,19.1%,-6.3%
COC(=O)c1ccc(/C=N\N2CCN(c3ccccc3)CC2)cc1,6.3%,10.0,x,4.2,-0.7%,21.9%,4.6%
Cc1cccc(C)c1NS(=O)(=O)c1ccc(-c2ccc(=O)[nH]n2)o1,-30.4%[inhibitor],-2.7,13.2,-6.0,-2.3%,14.9%,3.3%
Cc1nc2c(C)cccc2cc1C(=O)N/N=C/c1ccc(N(C)C)cc1,1.5%,7.1,-10.0,-0.3,-0.9%,-10.8%,10.7%
Clc1ccc(C2[C@H]3CN(Cc4ccc(-c5ccccc5)cc4)[C@H](c4ccccc4)C34CC2(c2ccccc2)C4)cn1 (some centres undefined),x,-20.6,23.5,1.4&1.5,-1.7%,20.6%&7.5%,6.3%
COc1ccc(C(CNC(=O)c2ccc(C)o2)N2CCOCC2)cc1 (centres undefined),-75.2%[inhibitor],u,1.0,x,-1.5%,x,3.6%
COc1ccc(S(=O)(=O)N2CCN(C(=O)c3cc(-c4ccc(C)cc4)n[nH]3)CC2)cc1,-4.1%,-11.7,9.6,0.1,-0.5%,5.6%,-19.7%
CSCCC(C(=O)NC1=NCCS1)N1C(=O)c2ccccc2C1=O (centres undefined),-65.5%[inhibitor],7.4,16.4,0.9,1.5%,u,7.2%
O=C(N/N=C/C1CC=CCC1)c1cc2ccccc2cc1O (centres undefined),8.5%[15.4 µM],1.2,-6.4,u,-3.7%,8.4%,4.2%
COc1ccc(C(=O)OCC(=O)Nc2ccc(Cl)cn2)cc1,-8.1%[15.4 µM],-22.6,24.5,-0.2,-6.9%,19.6%,9.8%

# The listing continues:
SMILES,gsp ag,TRPV1 PAM,TRPML1 blocker,Menin MLL FP FL,ClpP mod,Sfp PPTase inh,gsp antag
CN1CC=C2C(C#N)=C(N)C(C#N)(C#N)[C@H](c3cccc(Cl)c3)C2C1 (some centres undefined),2.4%,0.1,-17.6,u,u,0.6%,-4.2%
Cc1cc(C)c(S(=O)(=O)N2CCCC(C(=O)NCc3ccncc3)C2)c(C)c1 (centres undefined),-4.7%[15.4 µM],-13.3,7.1,x,-0.6%,5.0%,0.4%
COc1ccc(CN2CN(C(C)C)CSC2=S)cc1,2.9%,8.8,3.7,-0.1,-0.9%,11.0%,12.7%
O=c1oc2c(O)cccc2cc1-c1nc2ccccc2[nH]1,1.7%[15.4 µM],-0.3,-0.8,u,-3.0%,-16.6%,-5.2%
O=C(CC1(O)C(=O)Nc2ccc(Br)cc21)c1ccc2c(c1)OCO2 (centres undefined),-7.5%,-7.6,-9.9,0.8,-4.1%,12.7%,-13.0%
OC(c1ccccc1)(C1CCCCC1)C(CN1CCOCC1)c1ccccc1 (centres undefined),-26.6%[15.4 µM],-3.0,43.7,0.0,x,-13.1%,2.8%
CN(C)S(=O)(=O)N1CCCC(C(=O)c2ccc(C(F)(F)F)cc2)C1 (centres undefined),-4.4%[15.4 µM],-11.2,11.8,-1.0,-3.7%,1.2%,1.0%
